Source: PubChem
Vaccinia stage – blocks a specific stage of Vaccinia orthopoxvirus infection, primary screen, cell-based, single point; Vaccinia-infected cells, mCherry/Venus stage reporter fluorescence; hits give low values; some inactives read as strong as hits; activity change (mCherry), % (test concentration not listed); 89,000 tested, 0.01% active;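 active = mCherry past -33% and 40 or more points under the early reporter, replicates agreeing; inconclusive = past -33% without that gap or agreement; tested in A549 cells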;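 also: scaled between vehicle wells and reference inhibitor wells; 23 nL library stock went into each well; one replicate is shown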
Vaccinia stage Venus – second read-out of Vaccinia stage, no call of its own (marks repeat the call); activity change (Venus), %; measured here: Venus reporter, other viral stage;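 negative = less Venus signal; first of two replicates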
An asterisk follows results filed as active; ? = inconclusive; . = not tested or not shown; & = joins results of further samples. Not all compounds are listed (hit frequency here may not be typical).

The opening 4 entries as a preview:
Each structure is followed by: Vaccinia stage	Vaccinia stage Venus
- O=C(C[C@@H]1C=C[C@@H](NC(=O)c2cccc(F)c2)[C@H](CO)O1)NCc1ccccc1
  1	6
- CCCC#Cc1ccc2c(c1)O[C@@H](CN(C)C(=O)CN(C)C)[C@H](C)CN([C@@H](C)CO)S2(=O)=O
  -20	-12
- Cc1noc(C)c1NC(=O)N(C)C[C@@H]1OCCCC[C@H](C)Oc2ccc(N(C)C)cc2C(=O)N([C@H](C)CO)C[C@@H]1C
  0	-10
- COc1ccc2c3c([nH]c2c1)[C@H](CO)N(C(C)=O)CC31CCN(C(=O)Nc2ccc(F)cc2F)CC1
  -5	-7

Main list, from the first entry:
Each structure is followed by: Vaccinia stage	Vaccinia stage Venus
- O=C(C[C@@H]1C=C[C@@H](NC(=O)c2cccc(F)c2)[C@H](CO)O1)NCc1ccccc1
  1	6
- CCCC#Cc1ccc2c(c1)O[C@@H](CN(C)C(=O)CN(C)C)[C@H](C)CN([C@@H](C)CO)S2(=O)=O
  -20	-12
- Cc1noc(C)c1NC(=O)N(C)C[C@@H]1OCCCC[C@H](C)Oc2ccc(N(C)C)cc2C(=O)N([C@H](C)CO)C[C@@H]1C
  0	-10
- COc1ccc2c3c([nH]c2c1)[C@H](CO)N(C(C)=O)CC31CCN(C(=O)Nc2ccc(F)cc2F)CC1
  -5	-7
- COc1ccc(S(=O)(=O)Nc2ccc3c(c2)C(=O)N([C@H](C)CO)C[C@@H](C)[C@H](CN(C)Cc2ccc(Cl)c(Cl)c2)O3)cc1
  ?	.
- O=C(C[C@H]1C=C[C@@H](NC(=O)c2ccncc2)[C@H](CO)O1)NCC1CC1
  8	7
- CC(C)C#Cc1ccc2c(c1)O[C@H](CN(C)C(=O)c1ccccn1)[C@H](C)CN([C@H](C)CO)S2(=O)=O
  -2	-11
- CCCNC(=O)C[C@@H]1CC[C@@H]2[C@H](COC[C@@H](O)CN2C(=O)Nc2ccccc2OC)O1
  -8	-1
- O=C(C[C@H]1CC[C@@H]2[C@H](COC[C@@H](O)CN2C(=O)c2cccnc2)O1)NCc1ccc(Cl)cc1
  12	11
- O=C(C[C@@H]1CC[C@H](NC(=O)C2CCC2)[C@H](CO)O1)NC1CCC1
  -4	12
- CCCNC(=O)N1CC2(CN(C(=O)CN(C)C)C2)c2c(n(C)c3cc(OC)ccc23)[C@@H]1CO
  12	6
- N#Cc1cccc(-c2ccc(C3[C@@H]4CN(C(=O)c5ccncc5)C[C@H]3N4)cc2)c1 (stereo partly drawn)
  -34&-12	-41&-27
- Cc1ccc(S(=O)(=O)N(C)C[C@@H]2Oc3ccc(NC(=O)Cc4cn(C)c5ccccc45)cc3C(=O)N([C@H](C)CO)C[C@@H]2C)cc1
  -11	-3
- C[C@H]1CN([C@@H](C)CO)S(=O)(=O)c2ccc(C#CCN(C)C)cc2O[C@@H]1CN(C)S(C)(=O)=O
  3	8
- O=C1CN(S(=O)(=O)Cc2ccccc2)C[C@H]2[C@H](c3ccc(C#Cc4ccc(F)cc4)cc3)[C@H](CO)N12
  ?	.
- CC(C)NC(=O)N(C)C[C@@H]1Oc2c(NS(=O)(=O)c3ccc(F)cc3)cccc2C(=O)N([C@H](C)CO)C[C@@H]1C
  14	-3
- C[C@@H]1CN([C@@H](C)CO)C(=O)c2cc(-c3cccnc3)cnc2O[C@H]1CN(C)C(=O)Nc1ccc(F)cc1
  39	13
- CC=Cc1ccc2n(c1=O)C[C@H]1[C@H](CO)[C@@H](C(=O)N3CCCCC3)N(C(=O)CC3CC3)[C@@H]21 (mixture of isomers)
  6	5
- N#C[C@H]1[C@H](c2ccccc2C2=CCCC2)[C@@H](CO)N1C(=O)C1CCOCC1
  -9	-11
- C[C@H](CO)N1C[C@H](C)[C@@H](CN(C)Cc2cccc(C(=O)O)c2)Oc2cc(Br)ccc2S1(=O)=O
  6	3

Additional records.
Each structure is followed by: Vaccinia stage	Vaccinia stage Venus
- CCCNC(=O)N(C)C[C@@H]1Oc2ncc(-c3ccc(OC)cc3)cc2C(=O)N([C@@H](C)CO)C[C@H]1C
  28	15
- C[C@@H]1CCCCO[C@H](CN(C)S(C)(=O)=O)[C@@H](C)CN([C@H](C)CO)C(=O)c2cc(NS(=O)(=O)c3ccc(Cl)cc3)ccc2O1
  17	9
- CCC(=O)Nc1ccc2c(c1)C(=O)N(C)C[C@H](OC)[C@H](C)CN(C(=O)c1cnccn1)[C@H](C)CO2
  11	2
- O=C(C[C@H]1CC[C@H]2NC[C@H](O)COC[C@@H]2O1)NC1Cc2ccccc2C1
  8	16
- Cc1cccc(S(=O)(=O)N(C)C[C@H]2OCc3cn(nn3)CCCC(=O)N([C@@H](C)CO)C[C@@H]2C)c1
  10&8	4&8
- C[C@@H]1CN([C@H](C)CO)C(=O)c2cc(NC(=O)Nc3ccc(C(F)(F)F)cc3)ccc2O[C@@H](C)CCCCO[C@H]1CN(C)S(=O)(=O)c1ccccc1
  -5	4
- COc1ccc2c3c(n(C)c2c1)[C@@H](CO)N(C(=O)C1CCOCC1)CC31CCN(Cc2cccc(F)c2)CC1
  -34	-32
- COc1cccc(-c2cnc3c(c2)C(=O)N([C@H](C)CO)C[C@@H](C)[C@@H](CN(C)Cc2ccc(C(=O)O)cc2)O3)c1
  14	12
- O=C(NC[C@H]1N[C@@H](CO)[C@H]1c1ccc(-c2ccccc2)cc1)c1ccccc1F
  5	14
- C[C@H]1CN([C@@H](C)CO)C(=O)c2cccc(NC(=O)CCCCCC(=O)Nc3ccccc3N)c2O[C@H]1CN(C)C(=O)Nc1ccc2c(c1)OCO2
  -3	-7
- O=C(c1cccc(F)c1)N1CCCCN2[C@@H](CO)[C@H](c3ccc(-c4ccccc4)cc3)[C@@H]2C1
  -15	-19
- C[C@@H]1CN([C@@H](C)CO)C(=O)c2cc(/C=C/c3ccccc3)cnc2O[C@H]1CN(C)Cc1ccccc1F
  ?	.
- C[C@@H]1CCCCO[C@@H](CN(C)C(=O)C2CCCCC2)[C@@H](C)CN([C@@H](C)CO)C(=O)c2cc(NS(C)(=O)=O)ccc2O1
  12	10
- COc1ccccc1CN(C)C[C@@H]1OCc2cnnn2CCCC(=O)N([C@@H](C)CO)C[C@@H]1C
  6	4
- O=C(C[C@H]1CC[C@H](NC(=O)Cc2cccnc2)[C@@H](CO)O1)Nc1ccccc1
  2	6
- CC(=O)N1[C@@H]2Cn3c(ccc(C4=CCCC4)c3=O)[C@H]1[C@@H](C(=O)NCc1ccccc1)[C@@H]2CO
  17	4
- C[C@@H]1CCCCO[C@H](CN(C)C(=O)NC2CCCCC2)[C@H](C)CN([C@H](C)CO)C(=O)c2cc(NC(=O)Nc3ccc(C(F)(F)F)cc3)ccc2O1
  -31	-18
- CNC[C@@H]1Oc2c(NS(=O)(=O)c3cccs3)cccc2C(=O)N([C@@H](C)CO)C[C@@H]1C
  2	-2
- CC(C)NC(=O)N(C)C[C@@H]1OCc2ccccc2-c2ccccc2C(=O)N([C@@H](C)CO)C[C@H]1C
  23	15
- CO[C@@H]1CN(C)C(=O)c2cc(NC(=O)c3cc(C)on3)ccc2OC[C@H](C)N(C)C[C@H]1C
  3	6

Next compounds follow:
Each structure is followed by: Vaccinia stage	Vaccinia stage Venus
- CN(C)C(=O)c1ccc(-c2ccc3c(c2)[C@@H]2[C@@H](CCN2C(=O)C2CCCC2)[C@@H](CO)N3C)cc1
  11	-1
- C[C@H](CO)N1C[C@H](C)[C@H](CN(C)S(=O)(=O)c2ccc(Cl)cc2)Oc2ccc(NC(=O)Cn3cnnn3)cc2CC1=O
  13	16
- C[C@H](CO)N1C[C@H](C)[C@H](CN(C)S(=O)(=O)c2ccc(Cl)cc2)OCCCC[C@H](C)Oc2ccc(NC(=O)CCCN(C)C)cc2C1=O
  -25	-21
- C[C@H]1CN([C@@H](C)CO)S(=O)(=O)c2ccc(C#CC(C)(C)O)cc2O[C@H]1CN(C)C(=O)C1CCCCC1
  6	-1
- C[C@@H]1CN([C@@H](C)CO)C(=O)CCCn2nncc2CO[C@H]1CN(C)S(=O)(=O)c1ccc2c(c1)OCCCO2
  6	11
- O=C(Cc1ccccn1)N[C@@H]1C=C[C@H](CC(=O)N2CCCCC2)O[C@H]1CO
  -9	5
- CO[C@H]1CN(C)C(=O)c2cccc(C#N)c2OCC[C@@H]2CC[C@@H](OC)[C@H](CN(C)C(=O)[C@H]1C)O2
  10	4
- CN(C)C(=O)c1cccc(-c2ccc([C@@H]3[C@H]4CN(Cc5cccnc5)CCCCN4[C@H]3CO)cc2)c1
  22	7
- Cc1noc(C)c1S(=O)(=O)Nc1cccc2c1O[C@@H](CN(C)CC1CCCCC1)[C@@H](C)CN([C@H](C)CO)C2=O
  9	9
- CC(C)NC(=O)N(C)C[C@@H]1Oc2cc(C#CC3CC3)ccc2S(=O)(=O)N([C@H](C)CO)C[C@@H]1C
  18	17
- COCC#Cc1cnc2c(c1)C(=O)N([C@@H](C)CO)C[C@@H](C)[C@H](CN(C)C(=O)Nc1ccccc1OC)O2
  9	5
- C[C@H](CO)N1C[C@H](C)[C@@H](CN(C)Cc2ccncc2)Oc2ccc(NC(=O)NC3CCCCC3)cc2CC1=O
  2	10
- CN(C)CC(=O)N[C@H]1C[C@@H]2O[C@@H](CO)CC[C@@H]2O[C@@H]1CCc1ccc(C2=CCCCC2)cc1
  ?	.
- COc1ccc(CNC(=O)C[C@@H]2C=C[C@@H](NC(=O)CN(C)C)[C@@H](CO)O2)cc1
  24	25
- C/C=C/c1ccc([C@H]2[C@@H](CO)N(S(=O)(=O)CC)[C@H]2CN(C)C(=O)CC)cc1
  -3	2
- CC(C)NC(=O)Nc1ccc2c(c1)CC(=O)N([C@H](C)CO)C[C@@H](C)[C@H](CN(C)C(=O)NC1CCCCC1)O2
  10	8
- O=C(C[C@H]1C=C[C@H](NC(=O)Cc2ccccn2)[C@@H](CO)O1)NCCc1ccccc1
  6	20
- O=C(C[C@@H]1C[C@@H]2c3cc(NC(=O)c4cccnc4)ccc3O[C@@H]2[C@H](CO)O1)NCC(F)(F)F
  -8	5
- C[C@H](CO)N1C[C@H](C)[C@@H](CN(C)CC2CCCCC2)Oc2ccc(NC(=O)Cc3ccccc3)cc2CC1=O
  ?	.
- O=C(C[C@@H]1CC[C@H]2NC[C@@H](O)COC[C@@H]2O1)Nc1nccs1
  0	11

Quoted at random: 6 entries already listed, in no set order.
Each structure is followed by: Vaccinia stage	Vaccinia stage Venus
- CC(C)NC(=O)N(C)C[C@@H]1Oc2c(NS(=O)(=O)c3ccc(F)cc3)cccc2C(=O)N([C@H](C)CO)C[C@@H]1C
  14	-3
- O=C(C[C@H]1CC[C@@H]2[C@H](COC[C@@H](O)CN2C(=O)c2cccnc2)O1)NCc1ccc(Cl)cc1
  12	11
- COc1cccc(-c2cnc3c(c2)C(=O)N([C@H](C)CO)C[C@@H](C)[C@@H](CN(C)Cc2ccc(C(=O)O)cc2)O3)c1
  14	12
- O=C1CN(S(=O)(=O)Cc2ccccc2)C[C@H]2[C@H](c3ccc(C#Cc4ccc(F)cc4)cc3)[C@H](CO)N12
  ?	.
- O=C(C[C@H]1C=C[C@@H](NC(=O)c2ccncc2)[C@H](CO)O1)NCC1CC1
  8	7
- COc1ccc2c3c(n(C)c2c1)[C@@H](CO)N(C(=O)C1CCOCC1)CC31CCN(Cc2cccc(F)c2)CC1
  -34	-32

(further entries)
Each structure is followed by: Vaccinia stage	Vaccinia stage Venus
- O=C(CC1CC1)N1CC(=O)N2[C@H](CO)[C@@H](c3ccc(C#Cc4ccc(F)cc4)cc3)[C@@H]2C1
  ?	.
- C[C@@H]1CN([C@@H](C)CO)C(=O)c2cc(NS(=O)(=O)c3ccc(F)cc3)ccc2O[C@@H]1CN(C)C(=O)Nc1ccc2c(c1)OCO2
  16	4
- CO[C@H]1CN(C)C(=O)c2cc(NC(=O)NC(C)C)ccc2OC[C@H](C)N(CC2CC2)C[C@H]1C
  -1	-2
- C[C@H]1CN([C@@H](C)CO)C(=O)c2cccc(NS(=O)(=O)c3ccc(F)cc3)c2O[C@@H]1CN(C)Cc1ccncc1
  4	4
- O=C(C[C@H]1C[C@@H]2c3cc(NC(=O)CC4CC4)ccc3O[C@@H]2[C@@H](CO)O1)NCCc1ccccc1
  4	-1
- COc1cccc(-c2ccc3c(c2)[C@@H]2[C@@H](CCN2C(=O)C2CCOCC2)[C@H](CO)N3)c1
  -3	-3
- O=C(Cc1cccnc1)N1CC(=O)N2[C@@H](CO)[C@H](c3ccc(C4=CCCCC4)cc3)[C@@H]2C1
  1	3
- COc1ccc(C#Cc2ccc([C@@H]3[C@H]4CN(Cc5ccncc5)CCCCN4[C@H]3CO)cc2)cc1
  -17	2
- COc1ccccc1-c1ccc2c(c1)O[C@@H](CN(C)C(=O)Nc1cccc(F)c1)[C@@H](C)CN([C@H](C)CO)S2(=O)=O
  -15	-13
- CN(C)CC#Cc1ccc([C@@H]2[C@H]3CN(C(=O)Cc4cccnc4)CC(=O)N3[C@H]2CO)cc1
  4	-3
- CCCNC(=O)N1C[C@H]2[C@@H](c3ccccc31)[C@H](CO)N2Cc1ccc(OC)cc1
  2	3
- O=C(Nc1ccc(F)cc1)N[C@H]1CC[C@H](CCn2cc(-c3ccccc3F)nn2)O[C@H]1CO
  -1	-10
- COCC(=O)N1[C@H](C#N)[C@@H](c2ccccc2-c2cccc(OC)c2)[C@@H]1CO
  4	-2
- O=C(NCC[C@@H]1CC[C@@H](NC(=O)C2CCC2)[C@H](CO)O1)c1ccc(F)cc1
  -3	1
- COc1ccc(NC(=O)Nc2ccc3c(c2)C(=O)N([C@H](C)CO)C[C@@H](C)[C@@H](CN(C)Cc2ccc(Cl)c(Cl)c2)O3)cc1
  -31	-20
- O=C(Cc1ccccc1)N1CC[C@H]2[C@H](CO)Nc3ccc(-c4ccccc4)cc3[C@H]21
  -30	-14
- O=C(NC1CCC1)[C@H]1[C@H](CO)[C@H]2Cn3c(ccc(C4=CCCC4)c3=O)[C@@H]1N2C(=O)c1ccccc1
  10	10
